TAR Tat displ: HIV-1 TAR-Tat binding disruption. 100,000 compounds, 0.6% hits. HIV-1 TAR RNA, Tat peptide displacement FRET; stronger effect = higher value. z-score (test concentration not listed);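 note: score is relative to mean and SD of negative controls; some compounds called inactive have numbers as strong as hits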
CDC25B-CDK2 inh: human CDC25B-CDK2/CyclinA binding inhibition. z-score (test concentration not listed). HTRF CDC25B-CDK2/CyclinA binding, anti-His/anti-Flag; stronger effect = higher value. 94,000 compounds, 0.72% hits. P30305+P24941;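 note: score is relative to mean and SD of negative controls; strong numbers were not always called active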
* marks the source's active call; other numbers are inactive results.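 Rule for the calls: active = z-score from 3 up in half or more of its runs; inactive = the rest.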

How did CCS(=O)(=O)N1CCC(c2c(C)n(Cc3cccc(F)c3)c3ccccc23)CC1 do in these assays?
TAR Tat displ: 0.15

Results for Oc1ccccc1-c1cc(C(F)(F)F)nc(-c2ccccc2)n1 ?
TAR Tat displ: 1.17; CDC25B-CDK2 inh: -0.62

Results for COc1ccc(CN2CN=C(Nc3nc(C)c4cc(C)c(C)cc4n3)NC2)cc1 ?
TAR Tat displ: 0.91; CDC25B-CDK2 inh: -0.51

What do the screens show for `COCCNC(=O)C(=O)NCC1CCCO1` (configuration not stated)?
TAR Tat displ: 0.75; CDC25B-CDK2 inh: -0.53

How did Cc1ccccc1CSc1nc2c(c(=O)[nH]1)C(c1cc(F)cc(F)c1)CC(=O)N2 (configuration not stated) do in these assays?
TAR Tat displ: 1.56; CDC25B-CDK2 inh: 0.08

Results for CC(=O)c1c(C)nc(-c2ccccc2)nc1NC(=O)C(C)C ?
CDC25B-CDK2 inh: -2.4

Results for Cc1ccc(S(=O)(=O)Nc2ccnn2C)cc1 ?
CDC25B-CDK2 inh: -0.69

Results for O=C(Cn1c(=O)c2cccn2c2ccccc21)NCCCN1CCCC1=O ?
TAR Tat displ: 0.94

How did CCOC(=O)N1CCN(c2cc(NCC(=O)O)c3c4c(onc24)-c2ccccc2C3=O)CC1 do in these assays?
TAR Tat displ: -6.15; CDC25B-CDK2 inh: 3.17*

Results for N#Cc1cc([N+](=O)[O-])ccc1Sc1nnc(N)s1 ?
CDC25B-CDK2 inh: -2.14

What do the screens show for `CC1CC(=O)Nc2ccccc2N1C(=O)C1CC1` (configuration not stated)?
TAR Tat displ: -0.67; CDC25B-CDK2 inh: -1.04

Results for Cc1ccc(S(=O)(=O)c2c(C)c3cc4c(cc3[nH]c2=O)OCO4)cc1 ?
TAR Tat displ: 1.86; CDC25B-CDK2 inh: -1.14

What do the screens show for `CCN1CCN(c2nc(SC)nc(-c3ccccc3)c2C#N)CC1`?
TAR Tat displ: -0.43; CDC25B-CDK2 inh: -1.72

Results for Cc1cc(C)cc(NC(=O)Nc2nnc(N3CCC(C)CC3)s2)c1 ?
TAR Tat displ: 1.03; CDC25B-CDK2 inh: -0.53

How did O=S(=O)(NCc1cccn1Cc1ccc(Cl)cc1)c1cccs1 do in these assays?
TAR Tat displ: -2.17

Results for COc1ccc(-n2c(SCC(=O)Nc3cc(Cl)ccc3OC)nc3c(c2=O)SCC3)cc1 ?
TAR Tat displ: 1.75; CDC25B-CDK2 inh: -4.25

Results for CSc1ccc(CCNC(=O)Cn2ncc3c(=O)oc4ccccc4c32)cc1 ?
TAR Tat displ: 0.69; CDC25B-CDK2 inh: -0.55

What do the screens show for `O=C(Cn1cnc(S(=O)(=O)N2CCc3ccccc32)c1)NCc1ccc2c(c1)OCO2`?
TAR Tat displ: -0.16

What do the screens show for `CCOc1cc(C2CC(=O)N3CN(c4ccc(Br)cc4)CSC3=C2C#N)ccc1O` (configuration not stated)?
TAR Tat displ: 26.8*; CDC25B-CDK2 inh: 2.96

How did O=C(CC1C(=O)N(c2ccc(F)cc2)C(=O)N1CCc1cccs1)Nc1ccccc1 (configuration not stated) do in these assays?
CDC25B-CDK2 inh: -0.87

Results for CCOc1ccc(-c2csc3nc4ccccc4n23)cc1 ?
TAR Tat displ: 1.26; CDC25B-CDK2 inh: -1.05

What do the screens show for `O=C(CSc1ccccn1)Nc1c(C(=O)C2CC2)oc2ccccc12`?
TAR Tat displ: 1.64; CDC25B-CDK2 inh: -0.75

How did COC(=O)c1cc(=O)nc(N)s1 do in these assays?
CDC25B-CDK2 inh: -2.15

What do the screens show for `Cc1cccn2c(=O)c3cc(C(=O)Nc4cccc(F)c4)n(C)c3nc12`?
TAR Tat displ: 2.91

Results for Cn1c(=O)c2sccc2n2c(CCCC(=O)N3CCN(c4cccc(Cl)c4)CC3)nnc12 ?
TAR Tat displ: -0.53

Results for NC(=O)c1c(NC(=O)C2=COCCO2)sc2c1CCC2 ?
TAR Tat displ: 1.26

How did COC(=O)c1cc(OC)c(OC)cc1NC(=O)N1c2ccccc2Sc2ccccc21 do in these assays?
TAR Tat displ: 1.08; CDC25B-CDK2 inh: 0.2

What do the screens show for `O=S(=O)(Nc1ccc(Br)cc1F)c1ccc(N2CCCCS2(=O)=O)cc1`?
TAR Tat displ: 0.86

How did Cc1nn(CCCC(=O)N2CCc3ccccc3C2)c(=O)c2cc3occc3n12 do in these assays?
TAR Tat displ: 1.48; CDC25B-CDK2 inh: 0.62

How did O=C(NCc1ccccc1)c1sc(=S)n2c1[nH]c(=O)c1ccccc12 do in these assays?
TAR Tat displ: 8.36*

What do the screens show for `CC1Cc2ccccc2N1S(=O)(=O)c1ccc2c(c1)NC(=O)CS2` (configuration not stated)?
TAR Tat displ: 0.45

How did CCOc1ccc(NC(=O)N2CCCN(Cc3ccccc3F)C2)cc1 do in these assays?
CDC25B-CDK2 inh: -1.82

Results for CCCCNC(=O)O/N=C(\N)Cc1cccs1 ?
CDC25B-CDK2 inh: -1.99

How did CN1C(=O)C2(c3ccccc31)C(C(=O)N1CCN(Cc3ccccc3)CC1)CC1CCCN12 (configuration not stated) do in these assays?
TAR Tat displ: -6.28

How did Cc1cc(OC(C)C(=O)N(Cc2ccco2)C2CCS(=O)(=O)C2)cc(C)c1Cl (configuration not stated) do in these assays?
TAR Tat displ: 3.1; CDC25B-CDK2 inh: -1.89

How did CCN(CC)C(=O)Cn1cnc2sc(C(=O)N3CCN(c4ccc(F)cc4)CC3)c(C)c2c1=O do in these assays?
TAR Tat displ: 0.95; CDC25B-CDK2 inh: -0.05

How did COc1ccc(-c2csc(N3N=C(c4cccs4)CC3c3ccc(F)cc3)n2)cc1Br (configuration not stated) do in these assays?
CDC25B-CDK2 inh: -0.19

What do the screens show for `CC(C)(C)CC(C)(C)N1CNC(=S)NC1`?
CDC25B-CDK2 inh: -1.39

What do the screens show for `CC(C)(C)NC1C=C(c2ccccc2)Sc2nc(-c3ccccc3)cn21` (configuration not stated)?
TAR Tat displ: -2.2; CDC25B-CDK2 inh: -0.68

How did CC(C)N(C(=O)CN(C)S(=O)(=O)c1ccc2c(c1)NC(=O)CS2)C1CCCCC1 do in these assays?
TAR Tat displ: 1.23

How did CC1CCC(NC(=O)Cn2ncn3cccc3c2=O)CC1 (configuration not stated) do in these assays?
TAR Tat displ: -1.08; CDC25B-CDK2 inh: -1.44

What do the screens show for `O=C(CCS(=O)(=O)c1ccccc1)Nc1ccc2nc3n(c(=O)c2c1)CCCCC3`?
TAR Tat displ: -0.46; CDC25B-CDK2 inh: -0.63

Results for c1ccc2c(c1)[nH]c1nc(SCCCN3CCOCC3)nnc12 ?
TAR Tat displ: -0.57; CDC25B-CDK2 inh: 1.2

How did CN(CC(=O)c1ccc2cc[nH]c2c1)Cc1ccccc1 do in these assays?
CDC25B-CDK2 inh: -1.08

How did Cn1c(=O)oc2cc(S(=O)(=O)N(CCO)Cc3ccccc3)ccc21 do in these assays?
TAR Tat displ: 0.79; CDC25B-CDK2 inh: -1.37

What do the screens show for `Cc1cc(NS(=O)(=O)c2c(C)nc3sccn3c2=O)ccc1Br`?
TAR Tat displ: 1.24

Results for Cc1nc2c(sc3nc4c(cc32)COC(C)(C)C4)c(=O)n1CC(C)C ?
CDC25B-CDK2 inh: -1.25

Results for O=C(O)C1CCC(Cn2c(SCc3cc(=O)n4ccccc4n3)nc3ccsc3c2=O)CC1 (configuration not stated) ?
CDC25B-CDK2 inh: -0.28

What do the screens show for `CCOc1ccc(-c2n[nH]c3c2cnc2cc4c(cc23)OCCO4)cc1`?
TAR Tat displ: 16.9*; CDC25B-CDK2 inh: 15.2*

What do the screens show for `Cc1onc(-c2ccccc2)c1C(=O)NNC(=O)c1nc(-c2cccs2)no1`?
CDC25B-CDK2 inh: -0.6

What do the screens show for `CC1=Nc2ccccc2N=C(N)C1c1ccccc1` (configuration not stated)?
CDC25B-CDK2 inh: -1.82

Results for Cc1nc2sc(C(c3ccc(F)cc3)N3CCN(CCO)CC3)c(O)n2n1 (configuration not stated) ?
CDC25B-CDK2 inh: -0.81

What do the screens show for `Cc1ccc(Cl)cc1-n1ncc2c(NCCOCCO)ncnc21`?
TAR Tat displ: -0.29

Results for CC(=O)N1c2ccc(S(=O)(=O)N(C)CC(=O)N3CCc4ccccc43)cc2CC1C (configuration not stated) ?
TAR Tat displ: -0.12

What do the screens show for `O=C(Cn1cc2c(n1)CCCCC2)NC1CC1`?
TAR Tat displ: 0.34; CDC25B-CDK2 inh: -0.58

How did Cc1ccc2scc(N3CCOCC3)c(=O)c2c1 do in these assays?
TAR Tat displ: 0.31

How did NC(=O)Cn1c(=O)n(-c2cc(F)ccc2F)c(=O)c2sccc21 do in these assays?
CDC25B-CDK2 inh: 12.8

What do the screens show for `CCCCn1c(SCC(=O)OC)nc2sc3c(c2c1=O)CCC3`?
TAR Tat displ: 0.14; CDC25B-CDK2 inh: -1.89

What do the screens show for `Cc1cc2c(cc1S(=O)(=O)N(C)C1CCCC(C)C1C)OCC(=O)N2` (configuration not stated)?
TAR Tat displ: 2.44

Results for COc1ccc(C)cc1-n1nnc(-c2nc(-c3ccccc3F)no2)c1N ?
TAR Tat displ: 1.8

How did O=C1CC(c2ccccc2)CC2=C1C(c1cccnc1)Nc1ccc3ccccc3c12 (configuration not stated) do in these assays?
CDC25B-CDK2 inh: -1.46

What do the screens show for `COC(=O)C1C(=O)C2=C(CC1C)NC(C)=C(C(=O)OC1CCCC1)C2c1cccc(OC)c1OC` (configuration not stated)?
TAR Tat displ: -0.17; CDC25B-CDK2 inh: -1.82

How did CCC(=O)c1c(O)cc(O)cc1O do in these assays?
TAR Tat displ: 2.46

What do the screens show for `Cn1c(=O)c2c(nc(CN3CCCCC3)n2CCN2CCOCC2)n(C)c1=O`?
TAR Tat displ: -0.91; CDC25B-CDK2 inh: -2.82

What do the screens show for `CC(C)C1c2cccn2CCN1C(=O)Nc1cccc(Cl)c1` (configuration not stated)?
TAR Tat displ: -1.41

What do the screens show for `COc1ccc(S(=O)(=O)OCCSc2ccc([N+](=O)[O-])c3nonc23)cc1`?
CDC25B-CDK2 inh: -0.77

What do the screens show for `CCCCN1CN(CCc2ccccc2)CC2=C1CC(C)(C)CC2=O`?
TAR Tat displ: 1.76; CDC25B-CDK2 inh: -1.33

Results for CC(C)c1ccccc1OCc1nc2ccc(Cl)cc2[nH]1 ?
TAR Tat displ: 1.46; CDC25B-CDK2 inh: 1.35

How did C=CCOc1ccc2c(=O)cc(C(=O)OCC)oc2c1CCC do in these assays?
CDC25B-CDK2 inh: -0.4

How did Cc1nc2c(=O)oc3ccccc3c2n1-c1cccc(Cl)c1 do in these assays?
TAR Tat displ: -0.69; CDC25B-CDK2 inh: -0.88

Results for COc1cc(OC)c(NC(=O)C2=Cc3sc4c(c3CS2)CCCC4)cc1Cl ?
TAR Tat displ: 1.18

Results for COc1ccc(C2NC(=O)C(=O)/C2=C(\O)c2ccc(Cl)cc2)cc1 (configuration not stated) ?
TAR Tat displ: -0.55; CDC25B-CDK2 inh: -1.49

Results for Cc1nc2n(c(=O)c1CCN1CCC(c3noc4cc(F)ccc34)CC1)CCCC2O (configuration not stated) ?
CDC25B-CDK2 inh: -0.28

What do the screens show for `CC(C(=O)Nc1ccc2c(c1)OCO2)n1sc2ccccc2c1=O` (configuration not stated)?
TAR Tat displ: 1.42; CDC25B-CDK2 inh: -3.47

How did COc1ccc(-c2noc(-c3nnn(-c4ccc(Br)cc4F)c3C)n2)cc1 do in these assays?
TAR Tat displ: -0.16

How did CC(=O)OCC1=C(C(=O)O)N2C(=O)[C@@H](NC(=O)Cc3cccs3)[C@H]2SC1 do in these assays?
TAR Tat displ: 1.84; CDC25B-CDK2 inh: -1.39

How did COc1ccc(NC(=O)c2cc3cc4cc(OC)ccc4nc3o2)cc1 do in these assays?
TAR Tat displ: 2.64

What do the screens show for `COc1ccc(OC)c(NC(=O)NC2COc3ccccc3C2)c1` (configuration not stated)?
TAR Tat displ: 0.57

How did CCCn1nc(NS(C)(=O)=O)c2cc3cccc(C)c3nc21 do in these assays?
TAR Tat displ: 1.26; CDC25B-CDK2 inh: -3.19

What do the screens show for `O=S(=O)(c1ccccc1)N1CCC(c2ccncc2)CC1`?
TAR Tat displ: 1.43

Structures above containing an aryl thioether with sulfur outside any ring (10):
How did Cc1ccccc1CSc1nc2c(c(=O)[nH]1)C(c1cc(F)cc(F)c1)CC(=O)N2 (configuration not stated) do in these assays?
TAR Tat displ: 1.56; CDC25B-CDK2 inh: 0.08

Results for N#Cc1cc([N+](=O)[O-])ccc1Sc1nnc(N)s1 ?
CDC25B-CDK2 inh: -2.14

What do the screens show for `CCN1CCN(c2nc(SC)nc(-c3ccccc3)c2C#N)CC1`?
TAR Tat displ: -0.43; CDC25B-CDK2 inh: -1.72

Results for COc1ccc(-n2c(SCC(=O)Nc3cc(Cl)ccc3OC)nc3c(c2=O)SCC3)cc1 ?
TAR Tat displ: 1.75; CDC25B-CDK2 inh: -4.25

Results for CSc1ccc(CCNC(=O)Cn2ncc3c(=O)oc4ccccc4c32)cc1 ?
TAR Tat displ: 0.69; CDC25B-CDK2 inh: -0.55

What do the screens show for `O=C(CSc1ccccn1)Nc1c(C(=O)C2CC2)oc2ccccc12`?
TAR Tat displ: 1.64; CDC25B-CDK2 inh: -0.75

Results for c1ccc2c(c1)[nH]c1nc(SCCCN3CCOCC3)nnc12 ?
TAR Tat displ: -0.57; CDC25B-CDK2 inh: 1.2

Results for O=C(O)C1CCC(Cn2c(SCc3cc(=O)n4ccccc4n3)nc3ccsc3c2=O)CC1 (configuration not stated) ?
CDC25B-CDK2 inh: -0.28

What do the screens show for `CCCCn1c(SCC(=O)OC)nc2sc3c(c2c1=O)CCC3`?
TAR Tat displ: 0.14; CDC25B-CDK2 inh: -1.89

What do the screens show for `COc1ccc(S(=O)(=O)OCCSc2ccc([N+](=O)[O-])c3nonc23)cc1`?
CDC25B-CDK2 inh: -0.77

Screens (PubChem)
